Source: PubChem
Rango complex inh: prevents formation of the Rango-importin beta complex. 340,000 compounds, 0.031% hits. Rango CFP/YFP FRET sensor + importin beta, 45 min. Q14974. Potency, µM (titrated, usually from 92.2 µM), without a hit: at the top dose inhibition of complex formation; active = rising FRET ratio curve, often small or poorly fitted; inconclusive = mostly compound fluorescence or quenching in the first reads; inactive = flat curves in all reads;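 further: potency means the concentration at half of the fitted maximal effect; 0% = DMSO wells and 100% = buffer wells lacking importin beta; nearly all actives have a fitted effect of over 15% in size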
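FRET biosensor Rango (snurportin 1 IBB between N-terminal EYFP and C-terminal Cerulean), 50 nM in PBS/1 mM DTT/0.02% Tween-20/0.1% BSA, preincubated 5 min RT with compound; 0.125 microM importin beta added, 45 min RT, CFP/YFP FRET ratio read.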
miR-21 reporter: raises the signal of a miR-21 reporter | HeLa miR-21 FLuc reporter, luciferase, 48 h | Potency, µM (top dose mostly 38.3 µM), for inactives: at the top dose reporter change, positive = more light | 340,000 tested, under 10 active | AID 2288; active = well fitted rising curve with a large enough effect; inconclusive = small, poorly fitted or top-dose-only effect; inactive = no such curve, though single readings can be large or run the other way;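 further: % of control where 0% means no effect; miR-21 action dims this reporter so a rising signal means less miR-21 action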
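Luminescence from a firefly luciferase reporter carrying a miR-21 binding site downstream, stably expressed under a CMV promoter in HeLa cells that make miR-21 endogenously, reports miRNA modulation after 48 h compound exposure up to approximately 40uM final.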
Rango dissoc inh: inhibition of RanGTP-driven Rango-importin beta dissociation; Potency, µM (top dose mostly 46.1 µM), inactives show at the top dose activity change, negative = inhibition; O95149+P62826; Biochemical FRET Rango-importin beta, RanGTP-induced dissociation; 340,000 compounds, 0.071% hits; active means falling FRET ratio curve, often poorly fitted, with flat reads before Ran was added; inconclusive means other falling curves, or compound fluorescence or quenching; inactive means flat or rising ratio curve;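 further: potency means the concentration at half of the fitted maximal effect; % of control where 0% means no effect; nearly all actives have a fitted effect of over 45% in size; -100% = wells without RanGTP and RCC1; the record marks most hits as doubtful in a second field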
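Recombinant Rango FRET biosensor (EYFP–snurportin 1 IBB–cerulean CFP10) at 0.1 uM premixed with 0.25 uM importin beta in PBS, 1 mM DTT, 0.02% Tween-20, 0.1% BSA. Compound added 5 min; RanGTP-RCC1 (0.6 uM Ran, 2 mM GTP, 0.2 uM RCC1) then triggers release, read at 45 min.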
GLA inh pH 4.5: inhibitors of human alpha-galactosidase A at pH 4.5 | P06280 | activity change, negative = inhibition, % at 105 µM | purified enzyme, 4-MU-alpha-Gal fluorescence, pH 4.5 | 230,000 tested, under 10 active | AID 1467; inconclusive = small, poorly fitted or top-dose-only inhibition, or a rising curve; inactive = flat fitted curve, though single readings scatter; no compound was filed as active;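 further: 0% = full activity with enzyme and -100% = basal without enzyme; dose as in the result columns while the protocol names 77 µM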
Target sequence (P06280 whole entry, looked up): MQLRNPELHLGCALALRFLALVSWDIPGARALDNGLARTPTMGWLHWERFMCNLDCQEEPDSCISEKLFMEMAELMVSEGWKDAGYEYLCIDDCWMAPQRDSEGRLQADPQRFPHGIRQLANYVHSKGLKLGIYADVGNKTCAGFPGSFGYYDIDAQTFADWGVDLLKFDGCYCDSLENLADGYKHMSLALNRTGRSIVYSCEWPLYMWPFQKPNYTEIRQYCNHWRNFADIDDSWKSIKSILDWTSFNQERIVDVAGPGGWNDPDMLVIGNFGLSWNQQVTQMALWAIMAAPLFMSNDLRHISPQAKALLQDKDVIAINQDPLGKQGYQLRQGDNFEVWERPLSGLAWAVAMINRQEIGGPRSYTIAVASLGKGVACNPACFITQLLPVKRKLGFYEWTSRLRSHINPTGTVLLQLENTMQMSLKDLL
Starred values were filed as active, the others as inactive; ? = inconclusive; · = no result given; & = joins results of further samples; [ ] = another dose, or the depositor's remark. Only part of the results is shown; the hit share may differ from the screen's.

Rango complex inh,miR-21 reporter,Rango dissoc inh,GLA inh pH 4.5,Molecule
0.1%,-1%,-1%,·,COc1ccccc1N1CCN(S(=O)(=O)c2c(C)[nH]c(C)c2C(=O)N2CCCCC2)CC1
-4.6%,2%,-6%,2,O=C(NNC(=O)c1ccccc1[N+](=O)[O-])c1cnccn1
0.6%,·,?,·,O=S(=O)(NCC(c1ccco1)N1CCc2ccccc2C1)c1ccc(F)cc1 (stereo unspecified)
1.1%,-6%,1%,3,Cc1ccc(N(CC(=O)O)C2SC(=O)NC2=O)cc1 (stereo unspecified)
4.9%,4%,24%,·,O=S(=O)(c1ccccc1C(F)(F)F)N1CCN(CC(O)COc2ccccc2F)CC1 (stereo unspecified)
-2.8%,5%,14%,-10,COCc1cc(Sc2ccc(OC)cc2)nc(-c2ccccc2)n1
-0.7%,3%,14%,·,Cc1cccc(C(=O)N[C@H](C(=O)NCCc2ccc(S(N)(=O)=O)cc2)C(C)C)c1
2.2%,-10%,0%,1,CN(C)CCOC(=O)NCC12CC3CC(CC(C3)C1)C2
-2.1%,-27%,-17%,-4,N#CCCn1cc(C=C(C#N)C#N)c(-c2ccc(-c3ccccc3)cc2)n1
-1.4%,3%,-15%,2,COC(=O)CCC(=O)NS(=O)(=O)c1ccc(N=NN2CCOCC2)cc1
?,-31%,30%,11,O=C(Nc1nc(-c2ccccn2)cs1)C1CCCC1
-2.0%,-2%,-5%,-1,COc1ccc(C(=O)NNC(=O)c2ccccc2[N+](=O)[O-])cc1Br
2.3%,·,?,·,Cc1ccc(S(=O)(=O)Nc2cccc3c2O[C@H](CN(C)C(=O)Nc2cccc4ccccc24)[C@H](C)CN([C@H](C)CO)C3=O)cc1
2.0%,·,-1%,·,COc1ccc(C)cc1NC(=O)COC(=O)c1ccc2c(c1)OCCO2
-0.8%,5%,-12%,-5,NC(=O)NC(=O)COC(=O)c1sc2ccccc2c1Cl
?,0%,-5%,6,OCCC1CN(Cc2ccc3cc(Cl)ccc3n2)CCN1Cc1ccsc1 (stereo unspecified)
1.6%,·,2%,·,COc1ccc(Cl)c2sc(N3CCN(C(=O)C4=COCCO4)CC3)nc12
-0.2%,-12%,6%,3,Cn1c(CO)cnc1SCc1ccc([N+](=O)[O-])cc1
2.4%,-11%,2%,10,Cc1nc2n[nH]c(N)c2c2c1COC(C)(C)C2
-4.1%,-7%,1%,1,COCc1[nH][nH]c(=O)c1C=Nc1ccc(F)cc1F
0.2%,1%,-3%,1,C[N+]1(CCOC(=O)C2(c3ccccc3)CCCC2)CCCCC1
1.5%,·,18%,·,COc1ccc(C)cc1NC(=O)C1CCCCN1S(=O)(=O)c1ccccc1 (stereo unspecified)
3.1%,·,16%,·,Cc1ccc(C)c(COC(=O)c2cc([N+](=O)[O-])ccc2N2CCOCC2)c1
3.8%,-5%&3%,3%,·,Cc1cc(C)cc(N(CC(=O)Nc2cccc(C)c2C)S(=O)(=O)c2c(C)[nH]c(=O)[nH]c2=O)c1
4.0%,-3%,1%,6,CCc1ccccc1NC(=O)c1ccc(F)c(S(=O)(=O)N2CCC(C(N)=O)CC2)c1
-0.8%,-12%,1%,·,COCCN(C(=O)c1ccccc1)c1nc(-c2ccc(OC)cc2)cs1
2.5%,2%,-14%,-6,O=C(/C=N/O)NCCCN1CCCCCC1
-1.2%,0%,-9%,3,O=C1Cc2ccccc2N1c1ccccc1
1.8%,0%,-3%,2,Cc1ccc(C(=O)NC(NCC2CCCO2)C(Cl)(Cl)Cl)cc1 (stereo unspecified)
-0.6%,-7%,-1%,-1,Cc1nc2ccccc2c2oc(C(=O)NC3CC3)cc12

Arranged by the number under Rango complex inh (ascending): 3 from the list above
Rango complex inh,miR-21 reporter,Rango dissoc inh,GLA inh pH 4.5,Molecule
0.6%,·,?,·,O=S(=O)(NCC(c1ccco1)N1CCc2ccccc2C1)c1ccc(F)cc1 (stereo unspecified)
3.1%,·,16%,·,Cc1ccc(C)c(COC(=O)c2cc([N+](=O)[O-])ccc2N2CCOCC2)c1
4.0%,-3%,1%,6,CCc1ccccc1NC(=O)c1ccc(F)c(S(=O)(=O)N2CCC(C(N)=O)CC2)c1

Next section:
Rango complex inh,miR-21 reporter,Rango dissoc inh,GLA inh pH 4.5,Molecule
0.8%,1%,-2%,·,Cc1ccccc1N(C(=O)c1ccccn1)C(C(=O)NCc1ccccc1)c1ccncc1 (stereo unspecified)
-1.4%,-50%,-2%,-4,Cc1ccc(NC(=O)c2ccc3nc[nH]c3c2)cc1C
-0.1%,-17%,3%,·,O=C(NCC(=O)N1CCN(c2ccccc2O)CC1)c1ccco1
-3.6%,-17%,-6%,2,CCOC(=O)c1oc2ccccc2c1NC(=O)CN1CCN(C)CC1
-3.9%,3%,9%,-4,O=C(O)c1c(Cl)c(Cl)c(Cl)c(Cl)c1C(=O)N1CCCCCC1
-2.2%,1%,-6%,-6,Cc1nc2c(C)c(C)c(C)c(C)c2nc1C
-1.7%,-2%,?,4,CCC(C)(C)NC(=O)C(c1ccc(F)cc1)N(Cc1cccs1)C(=O)c1cnccn1 (stereo unspecified)
?,·,?,·,COc1ccc2c3c([nH]c2c1)[C@H]1C[C@H]2[C@H](C[C@@H](O)[C@H](OC)[C@H]2C(=O)O)CN1CC3
0.4%,0%,12%,·,Cc1ccccc1C1NC(=O)c2ccccc2O1 (stereo unspecified)
-3.9%,-4%,7%,·,COC(=O)c1nnn(-c2nonc2N)c1CN1CCCC1
-3.8%,0%,1%,·,O=C(O)c1ccc(N2CCN(C(c3ccccc3)c3ccccc3)CC2)c([N+](=O)[O-])c1
-4.3%,1%,0%,-2,CCN(CC)S(=O)(=O)c1ccc(O)c(C(=O)OCC(=O)N2c3ccccc3CC2C)c1 (stereo unspecified)
-1.4%,6%,-8%,10,CC(C)(C)C(=O)NCCc1nc2ccccc2n1CC(=O)c1ccc(Cl)cc1
-0.4%,2%,-8%,·,COC(=O)c1ccc(NC(=O)Nc2ccc([N+](=O)[O-])cc2)cc1
-0.3%,1%,-2%,·,O=C(CN1CCN(C(=O)c2c(F)cccc2F)CC1)Nc1ccccc1C(F)(F)F
-4.3%,-6%,9%,2,C=CCNC(=O)COC(=O)c1ccc(Cl)c(S(=O)(=O)N(Cc2ccccc2)c2ccccc2)c1
1.8%,0%,0%,·,COc1ccc(OCC(NS(=O)(=O)c2ccc(-n3cnnn3)cc2)C(C)C)cc1 (stereo unspecified)
-4.0%,-4%,-4%,-22,CCN1CCN(C(c2cccc(OC)c2OC)c2nnnn2Cc2ccco2)CC1 (stereo unspecified)
6.6%,-5%,8%,-5,COc1cc2c(cc1OC)CN(C(=O)CSc1nnc(C)s1)CC2
3.8%,·,-8%,·,CCOc1ccc(S(=O)(=O)NCCC(=O)NCc2ccncc2)cc1
0.4%,-2%,-3%,-2,O=C(O)CCCc1c(-[n+]2ccccc2)[nH]c2ccccc12
-4.1%,-1%,2%,7,CCC1CCCCN1Cc1ccc(OC)c(OC)c1 (stereo unspecified)
1.8%,-2%,-2%,-8,O=C(CSc1nncs1)NC(=O)NCc1ccccc1
?,-4%,-15%,4,CC1(C)Cc2ccccc2C2CC(O)C(=O)N21 (stereo unspecified)
-1.6%,5%,25%,1,CCN(C(=O)CSc1ccc2ccccc2n1)C1CCS(=O)(=O)C1 (stereo unspecified)
1.7%,-18%,1%,9,Cn1cnnc1Sc1ccc(C(=O)NCCC23CC4CC(CC(C4)C2)C3)cc1[N+](=O)[O-]
-1.8%,-29%,9%,-7,CC(=O)Nc1ccc(/C=C/c2ccc3cccc([N+](=O)[O-])c3n2)cc1
1.6%,-4%,24%,·,Fc1ccccc1N1CCN(Cc2cc(-c3ccccc3)on2)CC1
-1.3%,11%,11%,5,c1ccc(-c2nc(NCC3CCCO3)c3oc4ccccc4c3n2)cc1 (stereo unspecified)
-2.7%,-17%,2%,6,CCOC(=O)C1=C(O)CSC1=Nc1cccc2ccccc12
-0.7%,-4%,3%,·,CCOc1ccccc1/C=N/n1c(COc2ccccc2)n[nH]c1=S
0.5%,-10%,31%,1,O=C(CO/N=C/c1ccc(Cl)cc1Cl)NNC(=O)c1cccc(Cl)c1
-0.1%,0%,0%,-6,O=C(CSc1nc2ccccc2c(=O)n1CCCO)NCc1ccccc1
?,12%,-1%,0,CC1Oc2ccccc2C=C1/C=N/NC(=O)c1ccccc1O (stereo unspecified)
0.2%,-9%,6%,·,Cc1cccc(CSc2[nH]c(=O)ncc2C)c1
-1.7%,0%,-1%,-11,CCOc1ccc(C2C(C(=O)c3ccco3)=C(O)C(=O)N2Cc2cccnc2)cc1OC (stereo unspecified)
4.9%,-13%,6%,3[21.1 µM],COc1cccc(NC(=O)CCNC(=O)c2ccccc2Cl)c1
0.1%,7%,13%,-2,CC(C)C(=O)N1CCC2(CC1)Oc1ccc(F)cc1C(=O)C21CC(c2ccc(Cl)cc2)=NO1 (stereo unspecified)
0.2%,-17%,9%,-3,Cc1ccc(Nc2nc3ccccc3c(=O)[nH]2)cc1C
1.1%,5%,15%,4,Cc1ccc(S(=O)(=O)Nc2ccc(NC(=O)c3ccc(F)cc3)cc2)cc1
1.8%,-13%,2%,-12,CC(C)Cn1c2c(c(O)c(C(=O)Nn3c(Cc4ccccc4)nc4ccccc4c3=O)c1=O)CCCC2
0.2%,25%,-2%,·,CCc1ccc(-c2cc(C)no2)cc1S(=O)(=O)N1CCN(c2ccc(OC)cc2)CC1
-0.5%,9%,-7%,-18,CC1=C/C(=N\N=C2\NC(=O)C(CC(=O)Nc3ccccc3)S2)CC(C)(C)C1 (stereo unspecified)
-3.5%,-14%,1%,-1,CCc1ccccc1NC(=O)Nc1ccc(F)cc1F
-3.3%,-1%,-3%,·,Cc1cc(N2C(=O)C(O)=C(C(=O)c3ccco3)C2c2cccc(Oc3ccccc3)c2)no1 (stereo unspecified)
5.8%,-11%,-7%,-4,C=CCn1c(SCn2nnc3ccccc3c2=O)nnc1-c1ccc(F)cc1
-0.7%,-6%,-13%,4,OCCN1CCN(CC(O)COc2ccc(Cl)cc2)CC1 (stereo unspecified)
2.9%,-8%,-28%,-3,OCC1(Cc2ccccc2)CCCN(Cc2ccc(-c3ccco3)cc2)C1 (stereo unspecified)

Seven entries from above, with two lines to a compound.
Every second line gives: Rango complex inh	miR-21 reporter	Rango dissoc inh	GLA inh pH 4.5
> O=C(CO/N=C/c1ccc(Cl)cc1Cl)NNC(=O)c1cccc(Cl)c1
    0.5%	-10%	31%	1
> CC1=C/C(=N\N=C2\NC(=O)C(CC(=O)Nc3ccccc3)S2)CC(C)(C)C1 (stereo unspecified)
    -0.5%	9%	-7%	-18
> CCc1ccc(-c2cc(C)no2)cc1S(=O)(=O)N1CCN(c2ccc(OC)cc2)CC1
    0.2%	25%	-2%	·
> CCOc1ccc(C2C(C(=O)c3ccco3)=C(O)C(=O)N2Cc2cccnc2)cc1OC (stereo unspecified)
    -1.7%	0%	-1%	-11
> OCCN1CCN(CC(O)COc2ccc(Cl)cc2)CC1 (stereo unspecified)
    -0.7%	-6%	-13%	4
> C=CCn1c(SCn2nnc3ccccc3c2=O)nnc1-c1ccc(F)cc1
    5.8%	-11%	-7%	-4
> CC(C)C(=O)N1CCC2(CC1)Oc1ccc(F)cc1C(=O)C21CC(c2ccc(Cl)cc2)=NO1 (stereo unspecified)
    0.1%	7%	13%	-2
